Ba CapD inh: Bacillus anthracis CapD inhibitors, primary screen, biochemical, fluorescence intensity. purified CapD enzyme, fluorescence intensity read-out; stronger effect = lower value; some hits fall short of the stated cut. z-score (no concentration beside the values). 140,000 tested, 0.23% active. CapD gamma-glutamyltranspeptidase (Bacillus anthracis Ames Ancestor). AID 492967, 2010;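 active = z-score under -4 in either of two replicates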;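 also: stock transfer was 100 nL into about 40 µL; score is relative to mean and spread of the plate; one replicate is shown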
AID504770: growth inhibition of E. coli YBA685, primary screen, V. cholerae RctB inhibitors; E. coli YBA685 rctB-dependent plasmid, OD600 growth, 3 h; stronger effect = lower value; z-score (test concentration not listed); 130,000 tested, 0.27% active; AID 504770, 2011;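 active = z-score under -2 on both plates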;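 also: wells of about 30 µL received 100 nL stock; score is relative to mean and SD of the test wells; the first replicate is given; strong numbers were not always called active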
Active calls of the source: *; nt = no result given.

SMILES | Ba CapD inh | AID504770
O=C(CN1CCC(NC(=O)C2CCCCC2)CC1)Nc1cccc(F)c1 | nt | 0.05
Cc1cc(C)cc(N=Cc2c(C(F)(F)F)nn(C)c2Cl)c1 | 0.56 | 0.55
CCC(=O)c1c(O)ccc2c(C)cc(=O)oc12 | 1.8 | -1.5
CC1C(=O)CCN(Cc2ccccc2)C1C (stereo not given) | -1 | -0.65
CNCCC(Oc1ncccc1C(F)(F)F)c1ccccc1 (stereo not given) | -0.33 | nt
N#Cc1ccc(C(=O)N2CCN(C(=O)c3ccccc3)CC2)cc1 | nt | -0.35
CCC(=O)Nc1ccc2c(c1)N(CC)C(C)(C)CC2C (stereo not given) | 1.4 | -0.7
COC(=O)c1scc2c(Sc3ccc(Cl)cc3)cc(C(F)(F)F)nc12 | -0.85 | 0.6
CC1(C)[C@H]2CCC1(CS(=O)(=O)N(C1CCCCC1)C1CCCCC1)C(O)C2 (stereo not given in full) | -0.33 | -0.7
COc1ccc2nc(SCC(=O)c3ccc(Cl)c(Cl)c3)[nH]c2c1 | 0.17 | nt
Cc1nn(Cc2ccccc2)c(Cl)c1C(=O)Nc1nnc(-c2ccccc2)o1 | nt | 0.35
COc1ccccc1N1CCN(c2cc(NCCCO)c([N+](=O)[O-])c3nonc23)CC1 | -1.1 | nt
O=C(c1ccc(F)cc1)C1CCN(Cc2cnc(-c3ccccc3)[nH]2)CC1 | 0.79 | 1.5
COc1ccc(-c2cc(=O)n(CCC#N)[nH]2)cc1 | 0.86 | -0.9
CC1=NN(c2ccccc2)C(=O)C12C1C=CC(C1)C2(C(F)(F)F)C(F)(F)F (stereo not given) | 0.55 | 0.85
Cc1ccccc1NC(=O)NC(=O)CC#N | 0.12 | 0.45
FC(F)(F)c1cccc(N2CCN(Cc3ccnc(Cl)c3)CC2)c1 | -0.49 | nt
O=C(N1CCCC1)N1CCC(c2ccc3c(c2)OCO3)CC1 | nt | 0.05
O=C(O)c1ccccc1C(=O)OCCO | 0.38 | -0.85
CCNc1nc(SCC(=O)NC(=O)NCc2ccccc2)nc2sc3c(c12)CCN(C)C3 | 7.1 | -0.65
O=C(NC1CCCc2ccccc21)c1ccc(S(=O)(=O)N2CCOCC2)cc1 (stereo not given) | nt | 2.4
CC1CCCCN1Cc1c(C#N)c2ccccc2n1C (stereo not given) | nt | -1
O=C(C1CCCN1S(=O)(=O)c1ccc(Cl)cc1)N1CCc2ccccc2C1 (stereo not given) | -0.065 | -0.55
COc1ccc(-c2oc3ccc(OC)cc3c(=O)c2O)c(OC)c1 | 16 | -0.25
COc1cc(C(=O)Oc2ccc(N(C)C3=NS(=O)(=O)c4ccccc43)cc2)cc(OC)c1OC | -0.24 | nt
CSc1sc(C(=O)OCc2ccccc2)c2c1C(=O)CC(C)(C)C2 | -0.38 | nt
Nc1nc(-c2cc(-c3ccccc3)no2)cs1 | 1.6 | -0.75
COC(=O)c1ccccc1CSc1nccc(C(F)(F)F)n1 | -0.07 | nt
Cc1c2cnn(-c3ccccc3)c(=O)c2c(C)n1CCCC(=O)N1CCc2ccccc21 | 0.18 | -0.95
CCCNC(=O)Cn1nc(C)n2c(cc3ccccc32)c1=O | 0.48 | 1.2
Cn1c(CSCc2nc(-c3ccc(Cl)cc3)cs2)nnc1SCC(N)=O | -0.09 | -0.15
Cc1ccc(-c2oc(NC(=O)C3CCCC3)c(C#N)c2-c2ccc(C)cc2)cc1 | nt | 1.7
N#Cc1c(-c2ccc(F)cc2)ccnc1Sc1ccc(Br)cc1 | 0.47 | nt
CCN(Cc1nc(-c2ccccc2)no1)C(=O)c1ccc2c(c1)OCO2 | nt | 0.65
CC(=O)C1=C(O)C=C(c2ccc(C)o2)CC1c1ccccc1 (stereo not given) | 1.1 | -0.5
O=C(COc1ccc(S(=O)(=O)NCc2ccccc2)cc1)N1CCCC1 | nt | 1.8
Cc1ccc(C)c(-n2c(SCc3ccccc3C#N)nnc2-c2cc3sccc3n2C)c1 | -2.2 | -0.65
CNC(=O)NC(=O)C(C)Oc1ccccc1-c1ccccc1 (stereo not given) | nt | -0.4
CCCC(CCC)C(=O)Nc1ncc2c(n1)CCCC2=O | nt | 0.2
Cc1c(C(=O)c2ccccc2)c2ccccn2c1CCC#N | -0.18 | -0.45
CCN(CC)CCN1C(=O)c2ccccc2NC1c1ccccc1F (stereo not given) | nt | 2.9
CC(C)CC(=O)Nc1ccc(C(=O)COC(=O)CSc2nnc(-c3ccc4c(c3)OCO4)o2)cc1 | nt | 1.8
CCOC(=O)N/N=C/c1ccccc1OCC | 0.83 | nt
Cc1cc(C(=O)n2ccc(-c3cccs3)n2)c(C)o1 | 10 | 1.3
CC(COc1ccc(C(C)C)cc1)NC(=O)c1ccco1 (stereo not given) | nt | 1.9
COC(=O)c1nn(-c2ccc(Cl)cc2)c(=O)cc1Sc1ncccn1 | -0.67 | nt
S=C(NCCc1ccccc1)N/N=C/c1c(-c2ccc(Cl)cc2)[nH]c2ccccc12 | 21 | nt
O=C(COC(=O)c1ccncc1)c1ccc2ccccc2c1 | 3.5 | 0.6
O=S(=O)(Cc1cccc(C(F)(F)F)c1)c1ccc(Cl)cc1 | -0.33 | 0.55
COCCNP(=O)(c1ccccc1)c1nc2ccccc2s1 (stereo not given) | nt | 0.35
N#C/C(=C\c1ccco1)C(=O)Nn1cnnc1 | nt | 1.6
COc1ccc(-c2c(C)nn3c(N4CCc5ccccc54)cc(C)nc23)cc1OC | 0.21 | -0.7
COc1ccc(Cn2c(CCC(=O)NCc3ccccc3)nc3cccnc32)cc1 | -0.72 | 0.15
COc1cc(OC)nc(CSCCNC(=O)c2cccs2)n1 | -0.7 | nt
C(=NCc1ccco1)c1ccc2c(c1)OCO2 | 1.4 | nt
CCOC(=O)NN=C1CCCC1 | -0.095 | nt
COCCNC(=O)c1nn2c(C(F)(F)F)cc(-c3ccc(Br)cc3)nc2c1Cl | 0.11 | nt
CN1c2ccccc2-c2ccccc2C12C=Cc1ccccc1O2 (stereo not given) | 0.14 | nt
Cn1c(=NC(=O)CCSc2ccccc2)sc2cc(Cl)ccc21 | 0.045 | -0.25
COc1ccccc1-n1c(-c2ccccc2)cnc1SCC#N | nt | 0.7
More compounds.
SMILES | Ba CapD inh | AID504770
CCc1cccc(OCC(=O)Nc2c[nH]c(=O)[nH]c2=O)c1 | nt | 0.4
Nc1ccc(S(=O)(=O)N2CCCC(C(=O)O)C2)cc1 (stereo not given) | nt | 0
O=C1OC(c2ccc(Br)cc2)=N/C1=C\N1CC2CC(C1)c1cccc(=O)n1C2 (stereo not given) | 0.29 | nt
CCCNS(=O)(=O)c1ccc(OCC(=O)O)c(Cl)c1 | 0.42 | -0.35
Cc1ccc2oc(=O)n(CCC(=O)O)c2c1 | 0.93 | -1.2
COc1ccc(OC)c(NC(=S)NCCN2CCOCC2)c1 | nt | 0.2
COc1ccc(N2CCN(CCCNC(=O)C3CCCN(S(=O)(=O)c4cnc[nH]4)C3)CC2)cc1 (stereo not given) | 0.47 | -0.05
CCOC(=O)c1c(C)n(OCc2ccccc2)c2ccc3nonc3c12 | 15 | 0.25
O=C(O)Cn1c2ccccc2c2nn3cc(-c4ccccc4)nc3nc21 | -0.16 | nt
CCCc1cc(=O)n2[nH]c(C(F)(F)F)nc2n1 | 0.065 | -0.7
Cc1ccc(S(=O)(=O)N2CCC(c3nc4ccccc4s3)CC2)cc1 | -0.28 | nt
CCc1nn(CC(=O)NC2CC2)c(=O)c2cc3occc3n12 | 9 | 0.1
CC1CCCCN1C(=O)CSCC(=O)Nc1nc(-c2ccc(Cl)s2)cs1 (stereo not given) | -0.4 | -0.35
CCOc1ccc(/C=C(\C(=O)N2CCCC2)n2ccccc2=O)cc1 | nt | -0.25
CCc1ccc(NC2=CC(c3ccc(Br)cc3)N(c3ccc(CC)cc3)C2=O)cc1 (stereo not given) | -0.045 | nt
CSC(=NS(=O)(=O)c1ccccc1)SC | 0.18 | 0.4
CCS(=O)(=O)C(=C(Nc1ccccc1)Nc1ccccc1)S(=O)(=O)CC | 44 | 0.6
CC(c1ccco1)N(C(=O)c1ccc(Cl)s1)c1ccccn1 (stereo not given) | nt | -0.1
O=C(CN1C2=NCCCN2c2ccccc21)c1ccc(Cl)cc1 | -0.43 | nt
Cc1ccc(Oc2nc(SCc3ccccc3)nc3ccsc23)cc1 | -0.01 | nt
N#Cc1c2c(c(N3CCN(CCO)CC3)n3c1nc1ccccc13)CCC2 | 0.42 | -0.2
CCCc1cc(=O)[nH]c(SC(C)C(=O)NC(=O)NC)n1 (stereo not given) | nt | -0.6
CS/C(=N\S(=O)(=O)c1cccs1)Nc1ccc(N2CCOCC2)cc1 | nt | -2.7
CCOc1cccc(/C=N/n2c(-c3ccc(Cl)cc3)n[nH]c2=S)c1O | nt | 2.2
O=C(OCc1cc(=O)n2cc(Br)ccc2n1)c1cnccn1 | nt | 0.2
O=C1NNC(c2ccccc2)=N/C1=C\c1ccccc1 | -0.58 | 1.4
Fc1ccccc1-c1nc(NCc2cccs2)c2ccccc2n1 | 0.24 | nt
Cc1ccc(C(=O)CSc2nc(C)cc(SCC#N)n2)cc1 | nt | -0.35
COc1cc(-n2c(C)nc3cc(C(=O)NCc4ccc5c(c4)OCO5)ccc32)cc(OC)c1OC | 0.59 | nt
CCN(Cc1ccccc1)C(=O)c1cc2sccc2n1Cc1ccccc1 | nt | 0.2
COCc1c(C(=O)NCc2ccc(OC)cc2)oc2ccccc12 | nt | 0
O=C(Nc1ccccc1)c1csc(-c2ccc3c(c2)CCO3)n1 | 5.7 | -0.3
CCOP(=O)(OCC)c1nc(-c2ccc(C)cc2)oc1NCc1ccccc1 | 71 | nt
CC1Sc2nnc(-c3ccc(OC(F)F)cc3)n2N=C1c1ccc(NS(C)(=O)=O)cc1 (stereo not given) | nt | -0.2
O=C(OC(C(=O)NC1CCCC1)c1cccnc1)C1=Cc2ccccc2OC1 (stereo not given) | nt | -0.55
Cc1cc(=O)n(CC(=O)Nc2ccc(F)cc2)c(SCC(N)=O)c1C#N | nt | 0.4
CCn1c(SCC(=O)NCc2ccc(C)cc2)nc2c(c1=O)SCC2 | -0.83 | 1.1
O=C(NCc1ccco1)c1cc(=O)c2ccccc2o1 | 0.23 | 1.4
Cc1cc(C)n2cc(CSCc3ccccc3)nc2n1 | 95 | 0.65
CC(C)(C)Nc1nc(Cl)nc(Nc2cccc([N+](=O)[O-])c2)n1 | -1.1 | nt
CS(=O)(=O)N(c1ccc(F)cc1)C1C=CS(=O)(=O)C1 (stereo not given) | nt | 0.3
CC(C)(C)c1oc(C(=O)Nc2ccc3c(c2)oc2ccccc23)cc1COCC(F)(F)F | 5.7 | 0.3
NC(=O)N1CCNCC1 | nt | 0.5
CCCn1c(CCC(=O)Nc2ccccc2)nc2cccnc21 | 0.57 | -1
CCC(C)(C)N1CC(=O)N(Cc2ccccc2)C(c2ccc(OC)cc2)C1=O (stereo not given) | nt | -0.95
Cc1nc2ccccc2c2oc(C(=O)NCCN3CCN(C)CC3)cc12 | -1.1 | -2.3
CCC(C)Cn1c(CC(C)(C)C)nc2ccccc21 (stereo not given) | -0.04 | -1.2
COc1ccc(S(=O)(=O)N2CCN(C(=O)c3ccc4cc[nH]c4c3)CC2)cc1 | 0.9 | nt
CC(=O)NC12CC3CC(C1)CC(C(=O)NCC(c1ccco1)N(C)C)(C3)C2 (stereo not given) | nt | 0.75
Cc1cc(C)c(CN)cc1CN | 0.45 | 1.1
O=C(Cc1ccccc1F)Nc1cccc(-c2nn[nH]n2)c1 | -0.06 | 0.8
CC1(C)C2([N+](=O)[O-])CN3CC1([N+](=O)[O-])CN(C2)C3c1ccccc1Cl (stereo not given) | 0.18 | nt
Cc1ccc2nc(NC(=O)CSc3nnc(Cc4ccccc4)o3)sc2c1 | -0.08 | 2
CN(C(=O)COC(=O)c1ccc2ccccc2n1)C1CCCCC1 | 1.9 | -0.55
CCCN1CCC(N(C2CC2)S(=O)(=O)c2ccc(NC(=O)c3ccc(C(F)(F)F)cc3)cc2)CC1 | -0.2 | nt
Cc1nc2sccn2c(=O)c1S(=O)(=O)N1CCCC1 | -2 | -0.8
Cc1ccc2c(c1)-c1c(ssc1=S)C(C)(C)N2C(=O)CN1CCC(C)CC1 | -0.88 | nt
COc1cccc(C(=O)N2CCCC2)c1 | nt | -0.55

A different layout for part of the listing above:
SMILES	Ba CapD inh	AID504770
CCCn1c(CCC(=O)Nc2ccccc2)nc2cccnc21	0.57	-1
CCC(C)(C)N1CC(=O)N(Cc2ccccc2)C(c2ccc(OC)cc2)C1=O (stereo not given)	nt	-0.95
Cc1nc2ccccc2c2oc(C(=O)NCCN3CCN(C)CC3)cc12	-1.1	-2.3
CCC(C)Cn1c(CC(C)(C)C)nc2ccccc21 (stereo not given)	-0.04	-1.2
COc1ccc(S(=O)(=O)N2CCN(C(=O)c3ccc4cc[nH]c4c3)CC2)cc1	0.9	nt
CC(=O)NC12CC3CC(C1)CC(C(=O)NCC(c1ccco1)N(C)C)(C3)C2 (stereo not given)	nt	0.75
Cc1cc(C)c(CN)cc1CN	0.45	1.1
O=C(Cc1ccccc1F)Nc1cccc(-c2nn[nH]n2)c1	-0.06	0.8
CC1(C)C2([N+](=O)[O-])CN3CC1([N+](=O)[O-])CN(C2)C3c1ccccc1Cl (stereo not given)	0.18	nt
Cc1ccc2nc(NC(=O)CSc3nnc(Cc4ccccc4)o3)sc2c1	-0.08	2
CN(C(=O)COC(=O)c1ccc2ccccc2n1)C1CCCCC1	1.9	-0.55
CCCN1CCC(N(C2CC2)S(=O)(=O)c2ccc(NC(=O)c3ccc(C(F)(F)F)cc3)cc2)CC1	-0.2	nt
Cc1nc2sccn2c(=O)c1S(=O)(=O)N1CCCC1	-2	-0.8
Cc1ccc2c(c1)-c1c(ssc1=S)C(C)(C)N2C(=O)CN1CCC(C)CC1	-0.88	nt
COc1cccc(C(=O)N2CCCC2)c1	nt	-0.55

Bioassay records (PubChem BioAssay)

Rows were taken by chance, and some 0.41% of all compounds hit somewhere here.
